MLL AF4-AF9 inh: inhibitors of AF4 peptide binding to AF9, primary screen, biochemical, AlphaScreen, biotin-AF4 peptide, FLAG-AF9, single point; AID 651704, 2012; actives 0.47% (n = 350,000); inhibition, % at 10 µM;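 active = every replicate reaching a set inhibition limit, whatever the replicate mean, cut at about 25% in these data; inconclusive = mean inhibition reaches that limit but some replicates miss it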;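 note: 0% = plate neutral control median and 100% = total signal loss; the record names both 10 and 1 µM as test concentration; the first replicate is given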
Target sequence (P42568 whole entry, looked up): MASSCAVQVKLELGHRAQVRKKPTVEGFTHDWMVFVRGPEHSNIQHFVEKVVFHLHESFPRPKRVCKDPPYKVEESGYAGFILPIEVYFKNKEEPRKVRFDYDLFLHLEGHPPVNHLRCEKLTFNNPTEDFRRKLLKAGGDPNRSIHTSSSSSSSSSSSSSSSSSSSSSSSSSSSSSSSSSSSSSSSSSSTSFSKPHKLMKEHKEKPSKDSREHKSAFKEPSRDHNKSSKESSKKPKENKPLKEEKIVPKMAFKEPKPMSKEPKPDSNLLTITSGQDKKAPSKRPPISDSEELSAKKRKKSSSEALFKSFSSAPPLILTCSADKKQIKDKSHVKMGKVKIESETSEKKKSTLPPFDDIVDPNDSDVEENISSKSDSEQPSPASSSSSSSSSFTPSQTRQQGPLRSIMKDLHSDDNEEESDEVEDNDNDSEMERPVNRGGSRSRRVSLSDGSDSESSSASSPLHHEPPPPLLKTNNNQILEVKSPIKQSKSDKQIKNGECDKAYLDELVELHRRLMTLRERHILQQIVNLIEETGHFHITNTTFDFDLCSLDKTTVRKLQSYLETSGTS
HNF4A DNA FP: change in binding of human HNF4A to DNA, primary screen, biochemical, fluorescence polarization, FITC-DNA; 1 h; activity change, % at 10 µM; actives 0.3% (n = 360,000); in the data active = activity change above about 30%, passing the limit was not always enough;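 note: controls were the assay level and a saturating level of protein; the project sought stronger binding though the title names inhibitors; some compounds called inactive have numbers as strong as hits; positive values seem to mean higher polarization but the record does not say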
UCH37 inh: inhibitors of human UCH37 deubiquitinase, primary screen, biochemical, Ub-AMC cleavage, fluorescence; Ubiquitin carboxyl-terminal hydrolase isozyme L5 (Homo sapiens), Q9Y5K5; purified proteasome/UCH37; inhibition, % (test concentration not listed); actives 0.33% (n = 330,000); AID 588478, 2011;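 active = mean of two replicates above 20%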;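 note: 0% = compound-free wells with enzyme and 100% = wells lacking proteasome; stock transfer was 100 nL into about 20 µL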
Target sequence (Q9Y5K5 whole entry, looked up): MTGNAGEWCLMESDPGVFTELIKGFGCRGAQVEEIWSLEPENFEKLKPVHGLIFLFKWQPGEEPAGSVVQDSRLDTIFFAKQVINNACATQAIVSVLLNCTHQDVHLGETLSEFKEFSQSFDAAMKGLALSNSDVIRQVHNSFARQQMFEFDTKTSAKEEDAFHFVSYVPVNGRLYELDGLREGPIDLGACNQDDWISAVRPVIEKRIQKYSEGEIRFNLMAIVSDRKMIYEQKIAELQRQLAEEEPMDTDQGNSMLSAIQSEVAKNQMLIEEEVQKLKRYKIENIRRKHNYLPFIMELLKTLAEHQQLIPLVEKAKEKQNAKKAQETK
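Material: human UCH37 enzyme supplied as purified proteasome complex. Measure: % inhibition of Ub-AMC cleavage fluorescence. Medium: pH 7.4 Tris-HCl (50 mM) with ovalbumin, ATP-MgCl2, DTT. Times: 30 min preincubation with enzyme, 25 min cleavage at room temperature. Detection: AMC fluorescence intensity at 355/460 nm.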
Vif A3G: inhibitors of Vif binding to APOBEC3G peptide, primary screen, biochemical, TR-FRET, GST-Vif 1-94, biotin-A3G peptide, dose response retest (AID 1117319) | inhibition, %, or IC50 in µM where a hit was titrated | TR-FRET GST-Vif / biotin-A3G peptide binding; higher % means a stronger effect; test concentration not given here; strong numbers were not always called active | Virion infectivity factor (Human immunodeficiency virus type 1 group M subtype B (isolate … | actives 0.57% (n = 260,000);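 active = above the screen mean plus three standard deviations and confirmed in dose response; inconclusive = results disagree or hit not tested in dose response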;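 note: Vif residues 1-94 fused to GST binding biotinylated APOBEC3G peptide 110-148; 0% = full assay without inhibitor and 100% = GST in place of GST-Vif; retest series ran down from 100 µM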
Ecoli growth: E. coli growth inhibition, primary screen, OD600; Escherichia coli growth, 23 h; stronger effect = lower value; OD600 absorbance (concentration not given with the values); actives 0.21% (n = 330,000); AID 1053175, 2014;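 active = OD600 absorbance below the run mean of sample wells minus 3.6 SD, in any replicate, cut at about 0.56 in these data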;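 note: stock transfer was 300 nL into about 60 µL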
RanGTP-Impb inh: inhibitors of RanGTP-importin-beta interaction, primary screen, biochemical, FRET, CFP-Ran, YFP-importin-beta, homogeneous; AID 2216, 2009; Ran GTPase (GTP-bound) - importin-beta complex; inhibition, % (no concentration beside the values); actives 1.1% (n = 300,000); cell-free CFP-Ran/YFP-importin-beta FRET ratio;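 active = most replicates above 15%; inconclusive = exactly half above 15%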;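 note: 0% = DMSO wells and 100% = Ran loaded with GDP instead of GTP; wells of about 40 µL received 100 nL stock; the first replicate is given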
FGF22 binding: binders of human FGF22 protein, primary screen, FGF22 synaptogenesis inhibitor project, biophysical, thermal shift, single point. actives 1.5% (n = 340,000). recombinant FGF22 thermal shift, SYPRO orange fluorescence; percent of sucrose octasulfate shift, DMSO zero. Fibroblast growth factor 22 (Homo sapiens), Q9HCT0. calls only at 9.99 µM;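 active = melting point raised past a set limit in the mean and every replicate; inconclusive = no clear call; three in four hits are not shown here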
Target sequence (Q9HCT0 whole entry, looked up): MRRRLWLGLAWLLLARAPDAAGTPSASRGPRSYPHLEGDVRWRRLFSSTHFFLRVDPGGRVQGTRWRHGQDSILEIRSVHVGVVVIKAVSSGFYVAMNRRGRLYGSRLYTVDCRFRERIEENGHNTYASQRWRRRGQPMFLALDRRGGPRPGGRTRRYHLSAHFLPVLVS
Starred values were filed as active, the others as inactive; i = inactive; ? = inconclusive; . = not tested or not shown.

SMILES	MLL AF4-AF9 inh	HNF4A DNA FP	UCH37 inh	Vif A3G	Ecoli growth	RanGTP-Impb inh	FGF22 binding
C=CCOc1ccccc1CNCCc1ccc(S(N)(=O)=O)cc1	1.9	-4.0	5.8	1%	0.7	0.1	i
CCC(=O)Oc1c(S(=O)(=O)c2ccc(C)cc2)c(C)nn1C(C)(C)C	.	4.7	2.7	21%	0.73	1.3	.
CNC(=O)C1Cc2c(-c3ccccc3Oc3ccccc3)ccnc2O1 (stereo unspecified)	-1.3	0.3	.	.	.	.	i
Cc1ccc(OCC(=O)Nc2sc3c(c2C#N)CCC3)cc1	0.7	0.6	0.4	7%	0.67	-2.3	i
CCNC(=O)CSc1nc2cc(S(=O)(=O)Nc3ccc(OC)cc3)ccc2o1	-1.0	-1.0	1.5	.	0.71	-0.2	i
CCOC(=O)c1cnc2ccc(OC)cc2c1NCCN1CCOCC1	-1.2	-0.5	-5.4	.	0.7	7.9	i
CCN1CCN(C(C(=O)NC2CCCCC2)c2ccnc3ccccc23)CC1 (stereo unspecified)	0.4	1.9	.	.	.	.	i
COc1ccc(-n2c(C)cc(/C=C/c3nc(O)c([N+](=O)[O-])c(=O)[nH]3)c2C)cc1	-1.8	-8.2	16	?	0.62	0.6	i
O=C(C1=C(O)C(=O)N(c2ncccn2)C1c1ccc(Cl)cc1)c1ccco1 (stereo unspecified)	.	14	15	11%	0.78	2.8	.
O=C(CNS(=O)(=O)c1ccc(Cl)c(C(F)(F)F)c1)NC1CCCCCC1	-1.1	2.5	1.5	-9%	0.72	.	i
O=C(Nc1cccc(-c2nc3ncccc3o2)c1)c1sc2cc(Cl)ccc2c1Cl	0.0	176*	-12	-4%	0.69	-9.1	i
CCN(CC)S(=O)(=O)c1nnc(NC(=O)c2ccco2)s1	-1.9	-1.1	8.3	.	0.65	?	i
Cc1ccc(OCCCCN2CCc3ccccc3C2)c(C)c1	4.7	-1.9	4.5	.	0.61	-6.0	i
O=C(Nc1ccccc1)c1nc[nH]c1C(=O)N1CCc2ccccc2C1	3.7	-1.2	3.4	.	0.7	.	i
CCOC(=O)N1CCN(Cc2cc(Cl)c3cccnc3c2O)CC1	70*	.	1.0	?	0.59	44*	i
Cc1ccc(C(=O)COC(=O)c2ccncc2)cc1[N+](=O)[O-]	.	-6.0	3.0	-7%	0.71	-2.5	.
COc1ccc(-c2ccc(=O)n(CC(=O)Nc3ccc(C(=O)NC4CC4)cc3)n2)cc1OC	.	2.5	1.0	3%	0.68	-4.3	.
CCOc1ccccc1NC(=O)c1ccc(S(=O)(=O)N2CCOCC2)cc1	.	4.1	5.1	6%	0.65	5.4	.
CCNC(=O)C1(C)CCCN(Cc2ccccc2-c2ccccc2)C1 (stereo unspecified)	2.1	-1.1	.	.	.	.	i
O=C(NCC1CCCO1)c1ccc2c(c1)N(Cc1ccccc1)C(=O)CS2 (stereo unspecified)	0.1	0.6	1.9	.	0.68	3.3	i
COCCn1c(SCC(=O)Nc2ccc(C(N)=O)cc2)nc2c([nH]c3ccccc32)c1=O	-1.9	-2.7	-1.6	3%	0.72	.	i
CC(C)Cc1ccc(/C=C/C(=O)N2CCOCC2)cc1	1.4	0.2	4.4	-2%	0.68	18*	i
C/C(=N\NC(=O)CCCOc1ccc(Cl)cc1C)c1ccc(C)o1	.	2.0	.	3%	.	2.9	.
C/C(O)=c1/cnc2nc3ccccc3n2c1=O	-2.4	0.4	-75	-3%	0.62	-0.9	i
C=C(C)CSc1nnc(CCCCCNC(=O)OC(C)(C)C)o1	.	-0.6	2.1	13%	0.67	-4.7	i
C[C@@H]1O[C@H](CCc2cccc(Cl)c2)CC2=C1C(=O)OC(C)(C)O2	-5.1	-0.9	.	.	.	.	i
Cc1[nH]c(C)c(S(=O)(=O)Nc2cccc(Cl)c2C)c1C(=O)N1CCCC1	0.8	2.7	1.9	.	0.71	-1.2	i
COc1ccc(CCNC(=O)CC(Cc2ccccc2)C(=O)O)cc1OC (stereo unspecified)	-0.5	-1.0	0.9	-2%	0.65	2.2	i
CN(C1CCCCC1)S(=O)(=O)c1ccccc1	.	0.3	2.5	19%	0.67	4.9	.
COc1ccccc1NS(=O)(=O)c1ccc(Cl)c(NC(=O)c2sc3cc(Cl)ccc3c2Cl)c1	1.0	3.2	3.9	?	0.75	2.4	i
Cc1ccc(-c2cc(-c3ccccc3)c3c(N)c(S(C)(=O)=O)sc3n2)cc1	.	3.2	-218	?	0.76	-4.2	.
COc1ccc(N2C(=O)C(CC(=O)O)S/C2=C\C(C)=O)cc1 (stereo unspecified)	.	-2.6	5.9	0%	0.73	-6.6	.
O=C(O)CC/C(=C/c1cccc(NC(=O)c2ccccc2Cl)c1)c1nc2ccccc2s1	-3.8	5.6	-46	2%	0.66	.	i
CCOC(=O)C1(N(CC)CC)Sc2cc(C)ccc2NC1=O (stereo unspecified)	.	-2.7	1.8	-9%	0.7	3.8	.
N#CCC1(O)C(=O)N(Cc2ccccc2)c2ccccc21 (stereo unspecified)	-0.1	-0.9	.	.	.	.	i
O=C(COc1cccc2ccccc12)Nc1nc2ccccc2[nH]1	.	1.1	-0.5	-2%	0.71	.	.
CCOC(=O)C1CCN(C(=O)C2CCN(S(=O)(=O)c3ccc4ccccc4c3)CC2)CC1	-3.7	-0.5	5.5	-5%	0.7	-1.2	i
CCOC(=O)C1CCN(S(=O)(=O)c2cccc(-c3cn4ccccc4n3)c2)CC1	.	3.9	-4.3	-10%	0.72	0.8	.
CCCCc1nc2ccc(F)cc2cc1C	-2.8	3.8	.	.	.	.	i
COc1ccc(S(=O)(=O)N2CCCCC2)cc1NC(=O)Cc1ccc(Br)cc1	1.0	2.4	.	.	.	.	i
Cc1ccccc1-c1cccc([C@@H]2C[C@H]3CN(Cc4cccnc4)C(=O)[C@]34CCCN24)c1	5.8	6.4	4.9	-8%	0.72	-6.4	.
Cc1cccc(NC(=O)[C@H](Cc2ccccc2)NC(=O)OCc2ccccc2)c1	.	0.9	0.1	.	0.66	?	.
COc1ccc(S(=O)(=O)N(CC(=O)NCCSc2ccccn2)c2ccccc2)cc1	1.9	-0.5	0.9	.	0.72	2.0	i
CC1CCCC(C)N1CCCNC(=O)c1nn(C)c2c1CSc1ccccc1-2 (stereo unspecified)	6.3	6.0	0.3	0%	0.66	5.6	i
Cc1ccc2nc(-c3ccncc3)cc(C(=O)Nc3ccc4c(c3)OCCO4)c2c1	-1.2	0.6	-3.5	3%	0.73	-6.0	i
O=C(Nc1ccccc1)Nc1cccc2ccccc12	4.2	-1.0	-0.6	.	0.65	5.7	i
CCCn1c(=O)c2c(nc3n2CC(C)CN3Cc2ccccc2)n(C)c1=O (stereo unspecified)	2.4	-0.1	2.8	.	0.71	2.2	i
COc1ccc(C(=O)N2CCN(Cc3ccc4c(c3)OCO4)CC2)cc1OC	1.6	3.3	0.3	.	0.67	-3.8	i
CCOC(=O)CC1C(=O)NCCN1C(=O)c1ccc(F)cc1F (stereo unspecified)	.	0.2	1.4	?	0.71	7.4	.
NC(=O)c1ccc(-n2nnnc2Oc2ccc(Br)cc2)cc1	-2.3	5.1	3.4	.	0.71	3.9	i
Cc1[nH]c2ccccc2c1C(=O)CSC(=S)N1CCCCC1	-14	6.6	3.4	-2%	0.68	0.8	i
COc1ccccc1NC(=O)N1CCCC1C(=O)NCc1ccccc1F (stereo unspecified)	.	-4.1	4.2	1%	0.71	0.3	.
COc1ccc(NC(=O)c2oc3ccc(S(=O)(=O)N4CCOCC4)cc3c2C)cc1	-0.6	-3.9	-51	4%	0.66	1.2	i
O=C(CCCc1ccccc1)NCc1ccccc1	-0.5	.	-0.2	22%	0.66	5.3	.
O=C(COC(=O)c1nsc(Cl)c1Cl)NC1CCCC1	0.7	2.0	1.9	.	0.71	1.8	i
CCCCC(=O)Nc1ccc(NC(=O)c2cccs2)cn1	.	-1.3	0.0	-3%	0.66	0.9	.
O=c1cc(CO)oc(CN2CCN(Cc3ccccc3)CC2)c1O	.	-1.2	-0.8	0%	0.72	-3.5	.
COCCN(C(=O)CCC(=O)Nc1ccccn1)C(C(=O)NC(C)C)c1ccc(C)cc1 (stereo unspecified)	-1.2	2.3	0.5	.	0.64	-1.0	.
O=C(CCCSc1nnc(-c2cccs2)n1CC1CCCO1)c1ccccc1 (stereo unspecified)	.	-2.0	1.1	2%	0.76	1.8	.
Cn1c(SCC(=O)NNC(=O)Cc2ccccc2)nnc1-c1ccccc1	.	3.9	2.2	.	0.66	-1.9	.

Random excerpt: four compounds from above
SMILES	MLL AF4-AF9 inh	HNF4A DNA FP	UCH37 inh	Vif A3G	Ecoli growth	RanGTP-Impb inh	FGF22 binding
CCCCC(=O)Nc1ccc(NC(=O)c2cccs2)cn1	.	-1.3	0.0	-3%	0.66	0.9	.
COc1ccc(NC(=O)c2oc3ccc(S(=O)(=O)N4CCOCC4)cc3c2C)cc1	-0.6	-3.9	-51	4%	0.66	1.2	i
O=c1cc(CO)oc(CN2CCN(Cc3ccccc3)CC2)c1O	.	-1.2	-0.8	0%	0.72	-3.5	.
Cc1[nH]c2ccccc2c1C(=O)CSC(=S)N1CCCCC1	-14	6.6	3.4	-2%	0.68	0.8	i

New compounds follow.
SMILES	MLL AF4-AF9 inh	HNF4A DNA FP	UCH37 inh	Vif A3G	Ecoli growth	RanGTP-Impb inh	FGF22 binding
O=C(NC12CC3CC(CC(C3)C1)C2)N1CCC(n2nnc3ccccc32)CC1	.	-4.7	4.4	0%	0.71	-1.5	.
Cc1cc(S(=O)(=O)Nc2nc(CN3CCOCC3)nc3sc4c(c23)CCC4)ccc1F	-0.1	3.9	-4.0	6%	0.72	.	i
COc1ccc(CCC(=O)Nc2ccc(C)c(S(=O)(=O)N(C)C)c2)cc1OC	.	-3.3	2.8	11%	0.73	8.5	.
Cc1ccc(N2CC(C(=O)Nc3cc(S(=O)(=O)N4CCCCC4)ccc3C)CC2=O)cc1 (stereo unspecified)	1.0	-2.7	.	.	.	.	i
CCOc1ccccc1-n1c(SCC(N)=O)nc2ccccc2c1=O	.	3.0	2.7	-1%	0.69	-4.5	.
Fc1ccc(NC(=S)N2CCN(c3ccccn3)CC2)cc1Cl	-1.9	3.1	3.2	.	0.69	-1.2	i
CCOc1cc(/C=C\c2nc(O)c([N+](=O)[O-])c(=O)[nH]2)ccc1OC(C)C	1.5	-3.9	16	0%	0.69	7.2	i
CCC1(c2ccc(F)cc2)NC(=O)N(CC(=O)Nc2ccc(-c3nc4ccc(C)cc4s3)cc2)C1=O (stereo unspecified)	.	4.3	-5.3	-78%	0.7	4.7	.
C=CCNC(=O)C(=O)c1c(-c2ccccc2)[nH]c2ccccc12	8.5	1.8	9.9	.	0.7	-1.0	i
Cc1cccc(-c2nnc(SCC#N)n2C)c1	-5.1	-1.9	-2.7	-3%	0.66	-1.8	i
O=C(CSc1nnc(Cn2c(=O)sc3ccccc32)n1CCc1ccccc1)N1CCCC1	-2.0	0.8	2.0	31%	0.65	?	i
CC1Sc2ccc(C(=O)Nc3ccccc3OC(F)F)cc2NC1=O (stereo unspecified)	-0.9	1.0	1.1	3%	0.68	-0.6	.
COc1ccc(CSc2nc(N3CCOCC3)c3c(c2C#N)CC(C)(C)OC3)cc1	.	-2.0	1.4	9%	0.72	-0.8	.

Only part of the results is shown; the hit share may differ from the screen's.
